# Compound activity as filed in PubChem BioAssay.
# NPYLR7 agonist: mosquito NPYLR7 agonism. HEK293T NPYLR7/Galpha15, GCaMP6s calcium fluorescence. activation, % at 10 µM. 0.15% of 270,000 active. AID 1259423; in the data active = activation above about 40%;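 also: 0% = vehicle and 100% = reference agonist at the receptor; some compounds past the cut are filed as inactive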
# NPYLR7 agonist max-min: second read-out of NPYLR7 agonist, no call of its own (marks repeat the call); activation, %; measured here: Max-Min RFU normalised activation; some inactives read as strong as hits;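 span of the calcium signal over five minutes; 0% = vehicle and 100% = native peptide agonist; compound fluorescence can raise it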
# Active calls of the source: *; & = joins results of further samples. Only part of the results is shown; the hit share may differ from the screen's.
SMILES,NPYLR7 agonist,NPYLR7 agonist max-min
CCCc1nc(C)cc(N2CCCC(C(=O)NCCCO)C2)n1 (stereo unspecified),20,6
CN(C)c1ccc(C2CC(c3ccc(Cl)cc3)=Nc3nnnn32)cc1 (stereo unspecified),20,11
CC1Sc2nnc(-c3ccncc3)n2N=C1c1ccc(F)c(F)c1 (stereo unspecified),9,5
CC(NC(=O)CSc1ncnc2c1oc1ccccc12)c1ccccc1 (stereo unspecified),-9,-11
CCn1c(C)c(C=NC(C)C2CC3CCC2C3)c2ccccc21 (stereo unspecified),0,-2
C=C1CSc2nc(=O)c3c4c(sc3n21)CCC4,-6,-6
CCOc1ccccc1CN1CCN(C2CCC2)CC1CCO (stereo unspecified),1,-2
Cc1nc(C(C)C)ncc1C(=O)N1Cc2cnc(-c3ccccc3)nc2C1,13,9
CCCCCCc1ccc(C(=O)N2CCCN(c3nc(Cc4ccc(F)cc4)ns3)CC2)cc1,0,16
CC1(C(=O)Nc2cnc3ccccc3c2)CCN1Cc1ccc(-c2ccccc2)o1 (stereo unspecified),7,1
CCN(Cc1ccc2ccccc2n1)C(=O)c1cccc(NC(C)=O)c1,3,1
CCOC(=O)N1CCC(NCc2cncn2CC(C)C)CC1,2,1
CC(C(=O)Nc1ccccn1)N1CCc2[nH]nc(-c3ccc(F)c(F)c3)c2C1 (stereo unspecified),-5,-9
CCOC(=O)Cn1c(=O)[nH]c2cc(Br)cnc21,9,6
COc1ccc(/C=C/c2cc(O)cc(O[C@@H]3O[C@H](CO)[C@@H](O)[C@H](O)[C@H]3O)c2)cc1,-8,-13
c1ccc2cc(C3=NCCN3)ncc2c1,-1,-15
Cc1ccc(-c2nc(Cn3nnc(C(=O)Nc4ccccc4)c3C)c(C)o2)cc1,4,3
Cc1ccnc(SCc2cc(=O)c(OC(=O)c3cc4ccccc4oc3=O)co2)n1,-7,1
O=C(NCc1ccccn1)C1CCN(C2CCN(C(=O)c3ccc(Cl)cc3)CC2)CC1,3,-1
CC(=O)c1[nH]c(C)c(C(=O)N2CCC(c3cc(C(C)C)n[nH]3)CC2)c1C,1,-1
COc1ccc2cc(C3CN(Cc4nccs4)CCO3)ccc2c1 (stereo unspecified),1,-9
Cn1c(N)c(C(=O)COC(=O)Cn2nnc(-c3cccs3)n2)c(=O)n(C)c1=O,11,10
Cc1nc(C(=O)N(C)Cc2snnc2C)c(C)o1,0,-5
COc1ccc(C=CC(=O)N2c3ccccc3CC2C)cc1S(=O)(=O)N1CCOCC1 (stereo unspecified),9,9
COCCN(Cc1ccccc1OC)CC(O)COc1ccccc1 (stereo unspecified),30,25

# Ordered by formula weight (smallest number first): 4 of the compounds above
SMILES,NPYLR7 agonist,NPYLR7 agonist max-min
c1ccc2cc(C3=NCCN3)ncc2c1,-1,-15
COc1ccc2cc(C3CN(Cc4nccs4)CCO3)ccc2c1 (stereo unspecified),1,-9
O=C(NCc1ccccn1)C1CCN(C2CCN(C(=O)c3ccc(Cl)cc3)CC2)CC1,3,-1
COc1ccc(C=CC(=O)N2c3ccccc3CC2C)cc1S(=O)(=O)N1CCOCC1 (stereo unspecified),9,9

# (next part)
SMILES,NPYLR7 agonist,NPYLR7 agonist max-min
CCc1nc2n(n1)CC(NCc1ccc(N3CCCCC3)cc1)CC2 (stereo unspecified),6,3
CC(=O)c1cccc(OCc2cc(C(=O)NCc3ccco3)n[nH]2)c1,9,6
CN(Cc1ccc2ccccc2n1)C(=O)c1ccc(N2CCC(O)CC2)nc1,20,13
COCC(O)CN(CC(=O)N1CCc2sccc2C1COc1ccc(OC)cc1)CC1CC1 (stereo unspecified),9,11
CC(NC(=O)c1cccc(Cn2cccn2)c1)c1cn2ccsc2n1 (stereo unspecified),-5,0
COCC1(C(=O)NC(C)c2ccc3c(c2)OCCCO3)CCC1 (stereo unspecified),0,-8
Cc1cc(C)c(CS(=O)(=O)CC(=O)N2CCOC(C)C2)c(C)c1 (stereo unspecified),10,7
CC(C)NC(=O)CNC(=O)CN1CCCCCCC1,20,15
Cc1ccc(-n2nnc(C(=O)N3CCOCC3)c2C)cc1,-10,-12
Cc1cc(NC(=O)Cn2cnc3c(nnn3-c3ccc(F)cc3)c2=O)no1,10,13
O=C1CCCc2occ(C(=O)N3CCc4nnc(CCc5ccccc5)n4CC3)c21,-6,-7
Cc1cnc2c(Cl)c(C(=O)N3CCCC4(CC3)CNC(=O)O4)nn2c1 (stereo unspecified),18,6
N#Cc1cc(S(=O)(=O)N2CCOCC2)ccc1N1CCOCC1,-1,-6
Cn1cc(-c2nc(COc3ccc(F)cc3F)cs2)cn1,-3,-3
COCCNC(=O)c1c(NC(=O)c2ccco2)sc2c1CCCC2,11,10
CCc1cc(C(=O)N2CCC(=O)N(CC3CC3)C(C(C)C)C2)cs1 (stereo unspecified),3,-12
CCC1CCCCN1c1nc(-c2cccc(Cl)c2Cl)nc2ccccc12 (stereo unspecified),-2,3
COc1ccccc1-c1ccc(NC(C)c2csc(C)n2)nn1 (stereo unspecified),-3,-8
COC(=O)c1cc2c(=O)n(-c3cc(OC)c(OC)c(OC)c3)ccc2nc1C,-1,-1
Cc1noc(C2CCCN2C(=O)Cc2c(C)[nH]c3c(F)cccc23)n1 (stereo unspecified),10,6
Cc1ccc2cc(CCNC(=O)C3c4ccccc4Oc4ccccc43)c(=O)[nH]c2c1,1,9
CCSc1ncc(-c2nccn2Cc2cc(C(C)C)no2)cn1,5,3
Cc1cnc(C)c(N2CCN(Cc3ccc(C4CCCCO4)o3)CC2)n1 (stereo unspecified),7,3
OCCC1CN(Cc2ccc(-n3cccn3)cc2)CCN1Cc1ccccc1F (stereo unspecified),5,1
COC(=O)c1ccc(NC(=O)CN(C)S(=O)(=O)c2ccc(C#N)cc2)s1,7,6

# Gathered by group: the entries above with a carbonyl joined to an NH by a bond outside any ring
SMILES,NPYLR7 agonist,NPYLR7 agonist max-min
CCCc1nc(C)cc(N2CCCC(C(=O)NCCCO)C2)n1 (stereo unspecified),20,6
CC(NC(=O)CSc1ncnc2c1oc1ccccc12)c1ccccc1 (stereo unspecified),-9,-11
CC1(C(=O)Nc2cnc3ccccc3c2)CCN1Cc1ccc(-c2ccccc2)o1 (stereo unspecified),7,1
CCN(Cc1ccc2ccccc2n1)C(=O)c1cccc(NC(C)=O)c1,3,1
CC(C(=O)Nc1ccccn1)N1CCc2[nH]nc(-c3ccc(F)c(F)c3)c2C1 (stereo unspecified),-5,-9
Cc1ccc(-c2nc(Cn3nnc(C(=O)Nc4ccccc4)c3C)c(C)o2)cc1,4,3
O=C(NCc1ccccn1)C1CCN(C2CCN(C(=O)c3ccc(Cl)cc3)CC2)CC1,3,-1
CC(=O)c1cccc(OCc2cc(C(=O)NCc3ccco3)n[nH]2)c1,9,6
CC(NC(=O)c1cccc(Cn2cccn2)c1)c1cn2ccsc2n1 (stereo unspecified),-5,0
COCC1(C(=O)NC(C)c2ccc3c(c2)OCCCO3)CCC1 (stereo unspecified),0,-8
CC(C)NC(=O)CNC(=O)CN1CCCCCCC1,20,15
Cc1cc(NC(=O)Cn2cnc3c(nnn3-c3ccc(F)cc3)c2=O)no1,10,13
COCCNC(=O)c1c(NC(=O)c2ccco2)sc2c1CCCC2,11,10
Cc1ccc2cc(CCNC(=O)C3c4ccccc4Oc4ccccc43)c(=O)[nH]c2c1,1,9
COC(=O)c1ccc(NC(=O)CN(C)S(=O)(=O)c2ccc(C#N)cc2)s1,7,6

# (next part)
SMILES,NPYLR7 agonist,NPYLR7 agonist max-min
O=C(Nc1ccc(OC(F)(F)F)cc1)c1cccn(OCc2ccc(F)cc2)c1=O,2,0
COc1ccc(CNCc2cnc(-c3ccccc3C)s2)c(F)c1F,-6,-7
COc1ccc(CC(=O)NCC2CCCN(C(=O)c3ccc4c(c3)OCO4)C2)cc1 (stereo unspecified),20,16
COCC(=O)Nc1cc(C(=O)N(C)C2CCCCC2)c2c(c1)ncn2Cc1ccc(F)cc1,26,7
CN(C)c1ccc(-c2ccc3c(c2)COCC(=O)N3CCN2CCOCC2)cc1,5,5
Cc1ccc(NC(=O)N2CCC3(CC2)NC(=O)c2cc(F)c(F)cc2N3)c(C)c1,16,12
Cc1nn(CCC#N)c(C)c1S(=O)(=O)N1CCOCC1,2,4
CCCc1nc(C(=O)N2CCC(O)(CN(C)C)C2)cs1 (stereo unspecified),4,2
C=C(Cl)CN1C(=O)CN(C2CCCC2)C1=O,0,22
CN1CCNC(=O)C12CCN(S(=O)(=O)c1cccc(Cl)c1)CC2,1,0
COc1ccc(-n2c(-c3ccccc3)cc(C(=O)N3CCN(C(=O)c4ccccc4OC)CC3)c2C)cc1OC,-10,-13
Cc1cccc(CO[C@]2(C(=O)NCC3CC3)CC(OCc3cccc(F)c3F)[C@H](O)[C@H](O)C2)c1 (stereo partly specified),8,18
c1nc(SCc2ccc3c(c2)OCO3)c2c3c(sc2n1)CCCC3,-8,-18
C=CCNC(=S)Nc1ccc(Cl)cc1F,0,-2
CN(CCc1cnn(C)c1)c1nc2nonc2nc1NCc1cccs1,3&2,0&-1
COc1cc(-c2[nH]ncc2CN(C)Cc2nccn2C)cc(OC)c1OC,11,6
COc1ccc(Cl)cc1N=P12CN3CN(CN(C3)C1)C2,3,2
Cc1cccc(OCc2nc(CN(CCN(C)C)C(=O)c3cccs3)cs2)c1C,16,19
CN(C)CCCNc1ccc([N+](=O)[O-])cc1C#N,-9,-5
COC(=O)c1sc(N2C(=O)C(=O)C(=C(O)c3ccc(OC)cc3)C2c2ccccc2)nc1C (stereo unspecified),5,2
Cc1cc(=O)[nH]c(-n2nc(C)cc2NC(=O)C(C)Oc2ccccc2)n1 (stereo unspecified),-4,-1
CN1C(=O)C(CC(=O)NCCc2ccco2)(Cc2ccccc2)c2ccccc21 (stereo unspecified),5,0
CCOC(=O)CN(Cc1cccs1)[C@@H]1C[C@@H]2CO[C@H](C(C)C)C[C@@H]2C1,0,11
CC(C)CN(Cc1ccco1)C(=O)c1cn(CC2CCCNC2)nn1 (stereo unspecified),14,12
COc1ccc(-n2c(SCC(=O)Nc3nc(C)cs3)nc3c(c2=O)SCC3)cc1OC,-9,-10
# Later entries:
SMILES,NPYLR7 agonist,NPYLR7 agonist max-min
COCCN(Cc1c(-c2ccccc2)noc1N1CCCCC1)C(=O)C1CC1,8,17
O=C(Nc1ncn[nH]1)c1csc(-c2cccc(C(F)(F)F)c2)n1,1,2
CC1(C)C2CCC1(C)C(OC(=O)CSc1ncn[nH]1)C2 (stereo unspecified),2,-2
CCOC(=O)C1CCN(C(=O)c2cc(-c3ccc(F)cc3)n3nc(-c4ccccc4)cc3n2)CC1,24,16
Cc1nc(CN2C(=O)C(C)ON=C2c2cccc(Cl)c2)cs1 (stereo unspecified),9,4
COc1cc(CN(C(=O)C(C)Cc2ccccc2F)C2CC2)ccc1O (stereo unspecified),5,3
CC(=O)Nc1ccc(NC(=O)CSc2ncc(CO)n2CC(=O)NC2CC2)cc1,9,2
CCCCN(CC)C(=O)c1cn[nH]c1-c1ccccc1,9,6
O=C(c1ccc(Br)cc1)C(CSc1ccc(Cl)cc1)n1cncn1 (stereo unspecified),0,0
O=C(CCN1CCN(c2ccc(Cl)cn2)CC1)NCc1ccco1,4,-3
O=C(NC(Cc1ccccc1)C(=O)Nc1nnc(-c2ccccc2)s1)c1ccccc1Cl (stereo unspecified),16,22
C=c1c(C#N)c2[nH]c(N)c(C#N)c(C)c-2/c1=C\c1ccc(-c2ccc(C(=O)O)cc2)o1,18,10
O=C(Nc1ccccc1)c1cccc(S(=O)(=O)NCc2cccnc2)c1,-7,-14
COc1cccc(Cc2nsc(N(CCC(=O)N3CCN(c4ccccc4OC)CC3)Cc3ccco3)n2)c1,11,11
COc1ccc(S(=O)(=O)N(C)CC2OCCO2)cc1OC,-12,-20
NC1(C(=O)O)CCN(Cc2ccccc2O)C1 (stereo unspecified),-5,-6
Cc1ncc(CN2CCCC2C(=O)Nc2cccc(-n3cccn3)c2)[nH]1 (stereo unspecified),1,-1
COc1ccc(-c2cc(C(=O)Nc3cc(Cl)ccc3OC)c3ccccc3n2)cc1,-19,-23
Nc1ccc(N2CCCCC2)cc1,8,15
C=CCn1cc(CN[C@H](C)c2cccc(OC)c2)c(C)n1,-2,-1
CCCCN(CC(=O)N1c2ccccc2-n2cccc2C1c1ccc(Cl)cc1)C(=O)c1cc(C(F)(F)F)cc(C(F)(F)F)c1 (stereo unspecified),5,3
COc1cc(C(=O)N(C)Cc2nonc2C)ccc1OC1CCN(C2CCCC2)CC1,8,4
CCn1cc2nc(OC)c(CNC(=O)Cn3ccccc3=O)cc2c1O,10,2
CC(=O)Nc1c(C)ccc(NC(=O)NC(C)c2c(C)noc2C)c1C (stereo unspecified),0,48
O=C(NC(Cc1ccccc1)c1ccccc1)c1ccc(-c2cc(-c3cccc4ccccc34)[nH]n2)cc1 (stereo unspecified),23,23

# A different layout for part of the listing above:
> Nc1ccc(N2CCCCC2)cc1
  NPYLR7 agonist: 8	NPYLR7 agonist max-min: 15
> C=CCn1cc(CN[C@H](C)c2cccc(OC)c2)c(C)n1
  NPYLR7 agonist: -2	NPYLR7 agonist max-min: -1

# Remaining list, next part.
SMILES,NPYLR7 agonist,NPYLR7 agonist max-min
Cc1cc(C)c2nc(C)cc(NC(=O)COC(C)C)c2c1,2,3
O=C(Cn1cnnn1)Nc1ncc(Cc2cc(Cl)cc(Cl)c2)s1,1,10
CCn1c(C)c(C)n2c3c(=O)n(CCN4CCCCC4)c(=O)n(C)c3nc12,0,14
O=C(NCc1cccc(C(F)(F)F)c1)c1cc2n(n1)CCN(Cc1cccc(Cl)c1)C2=O,14,12
O=c1oc2ccccc2cc1-c1csc(N/N=C\c2ccco2)n1,-7,-10
CC(C)N(C)Cc1ccccc1CNC(=O)c1ncncc1Cl,2,0
O=S(=O)(NN=Cc1ccc(O)c(O)c1O)c1ccc(Br)cc1,8,6
CCOc1ccc(C(C2Sc3nc(C)nn3C2=O)N2CCN(c3ccccc3F)CC2)cc1OC (stereo unspecified),0,-11
